YopH PTP inh = blocks Yersinia enterocolitica YopH tyrosine phosphatase | fluorescence Ex485/Em525 | inhibition, %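 (about 10 µM by stock and volumes)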 | 140,000 compounds, 0.16% hits | AID 898;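 active = inhibition of 50% or more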;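 note: controls were vehicle for no effect and minimum signal wells for full effect; inactives centre near -20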
Arbovirus inh = arbovirus infection inhibition. arbovirus infection cell-based antiviral screen. inhibition, % at 10 µM. 200,000 compounds, 0.37% hits. AID 1251;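 active = inhibition from about 30%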;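 note: bluetongue infection of BSR cells; cell survival read as ATP light after 72 h; 0% = infected wells without compound and 100% = uninfected wells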
Mtb H37Rv = M. tuberculosis H37Rv growth inhibitors, H37Rv strain (AID 1626). M. tuberculosis H37Rv growth inhibition; higher % means a stronger effect. inhibition, % at 10 µM; hits with a dose series show IC50 in µM. 220,000 compounds, 0.95% hits;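 active = confirmed in a dose series; inconclusive = inhibition above 80% but not taken into the dose series; inactive = below 80% or under 30% at every dose of the series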;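 note: bacteria incubated seven days before Alamar blue readout; 0% = bacteria only wells and 100% = bacteria with antibiotic wells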
Mtb bLac sens = beta-lactam sensitization of Mtb H37Rv. M. tuberculosis H37Rv growth with meropenem, percent inhibition; hits of this screen are not shown here. inhibition, % at 25 µM. 330,000 compounds, 0.27% hits. AID 434955;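 active = about 74% or more and at least 40 points above the plate without the antibiotic, then above 30% in a dose series; inconclusive = first-round hits that could not be retested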;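 note: growth measured after seven days incubation then overnight dye step; 0% = bacteria only wells and 100% = bacteria with antibiotic; twin plates without the antibiotic show which effects depend on it; some results filed as inactive read as strong as hits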
RecA splice inh = blocks M. tuberculosis RecA intein splicing; P9WHJ3; cell-free RecA intein splicing, fluorescence; AID 2221; 290,000 compounds, 0.75% hits; inhibition, %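 (about 9 µM by stock and volumes)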; in the data active = inhibition above about 30%; inconclusive = no clear call, values can overlap the other calls;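 note: 0% = vehicle wells and 100% = reference inhibitor control wells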
Target sequence (P9WHJ3 whole entry, looked up, canonical isoform): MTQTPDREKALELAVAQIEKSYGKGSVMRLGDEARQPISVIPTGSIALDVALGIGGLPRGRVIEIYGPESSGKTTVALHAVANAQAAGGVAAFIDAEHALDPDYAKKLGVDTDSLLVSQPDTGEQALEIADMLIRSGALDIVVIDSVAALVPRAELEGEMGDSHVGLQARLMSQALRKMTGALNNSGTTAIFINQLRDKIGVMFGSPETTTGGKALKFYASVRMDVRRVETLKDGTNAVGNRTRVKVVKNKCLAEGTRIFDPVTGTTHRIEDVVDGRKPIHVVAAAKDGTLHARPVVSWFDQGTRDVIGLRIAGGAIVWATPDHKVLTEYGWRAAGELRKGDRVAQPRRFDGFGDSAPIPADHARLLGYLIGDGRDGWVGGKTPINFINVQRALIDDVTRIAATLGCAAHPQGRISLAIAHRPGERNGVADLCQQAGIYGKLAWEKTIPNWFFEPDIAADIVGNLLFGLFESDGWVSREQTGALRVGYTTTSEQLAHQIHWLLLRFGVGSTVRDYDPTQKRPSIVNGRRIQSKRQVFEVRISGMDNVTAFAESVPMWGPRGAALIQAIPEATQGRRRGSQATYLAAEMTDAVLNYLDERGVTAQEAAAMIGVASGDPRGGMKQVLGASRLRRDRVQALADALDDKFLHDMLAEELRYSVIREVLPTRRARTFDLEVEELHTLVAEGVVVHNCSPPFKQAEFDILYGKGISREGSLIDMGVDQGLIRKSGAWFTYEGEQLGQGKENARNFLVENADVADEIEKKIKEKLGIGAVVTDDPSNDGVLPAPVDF
Arbovirus inh repeat = recorded beside Arbovirus inh, whose call it bears; inhibition, %; measured here: 10K subset replicate screen; many hits read low in the repeat;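 first of two repeat runs on a subset; 0% = infected and 100% = uninfected wells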
* hit, by the source's call; ? = inconclusive; / = no result given.

SMILES	YopH PTP inh	Arbovirus inh	Mtb H37Rv	Mtb bLac sens	RecA splice inh	others
CCN1CCN(C(=O)CCNC(=O)Cn2ccc3ccccc3c2=O)CC1	-1	11	-5%	-8	3.2
CCOc1ccc(NS(=O)(=O)c2ccc(NC(=O)C3CC3)cc2)cc1	/	/	/	-3	1.4
CCOc1ccc2c(c1)[nH]c(=S)n2C	/	/	8%	0	-1.5
Cc1cc(C)c(S(=O)(=O)Nc2nnc(C3CCCCC3)s2)c(C)c1	/	/	/	-6	8.0
CCCc1cc2c(cc1NC(=O)c1ccccc1C)OCO2	-26	-2	22%	99	-1.6
CN(C(=O)c1cccc(C#CC(C)(C)O)c1)C1CCCN(Cc2ccccc2F)C1 (stereo not drawn)	/	/	/	1	-0.2
Cc1cccc(NC(=O)CCCN2C(=O)c3cccc4cccc(c34)C2=O)c1	-46	-1	-11%	/	0.9
CCCCN(C(=O)c1ccc(C#N)cc1)c1c(N)n(CCC)c(=O)[nH]c1=O	/	/	/	-1	-2.7
CN(c1ncc(C(F)(F)F)cc1Cl)n1cc(C(N)=O)c2ccccc2c1=O	-6	5	-12%	-11	4.9
COc1ccc(C(C)=O)cc1CC(C(=O)c1ccc(C)cc1)N(C)C (stereo not drawn)	-17	-7	-4%	3	-1.4
COc1ccc(NC(=O)c2cnn3c(C(F)(F)F)cc(-c4ccco4)nc23)cc1OC	-26	-2	3%	-10	-0.4	Arbovirus inh repeat=3
CC#CCc1cc2ccccc2c(=O)o1	/	/	-2%	-6	2.6
CCC(=O)N(Cc1cc2cccc(C)c2[nH]c1=O)c1ccccc1OC	-18	1	-1%	8	/
CCOc1ncccc1C(=O)NCCc1ccc(Cl)cc1	/	/	/	-4	-2.6
CN1CCC(=NNc2ccc(S(=O)(=O)N3CCOCC3)cc2[N+](=O)[O-])CC1	8	-15	3%	-2	0.5
N/C(=N\OC(=O)CC1CCCCC1)c1ccccc1	-26	1	-5%	4	4.3
CS(=O)(=O)c1ccc2nc(NC(=O)CN3C(=O)NC4(CCCC4)C3=O)sc2c1	/	/	/	-3	-8.5
O=C(NC(=S)N1CCOCC1)c1ccccc1Cl	/	/	/	-10	-1.6
N=c1c(C(=O)NCC2CCCO2)cc2c(=O)n3ccccc3nc2n1Cc1ccccc1Cl (stereo not drawn)	/	/	/	-6	-463
CCOC(=O)c1cn(CC(=O)Nc2ccc3c(c2)OCCO3)nn1	-23	-5	-1%	4	/
O=C(Cc1ccccc1F)Nc1nc(-c2cccnc2)cs1	/	-1	3%	1	-1.7
Nc1c(N=Nc2cccc(Cl)c2)c(=O)[nH]n1-c1ccccc1	-26	-3	-2%	-4	1.6
COc1ccc(C2CC(=O)n3c(nc4ccccc43)S2)cc1OC (stereo not drawn)	5	-1	4%	-11	1.6
CCCCCCCCOC1OC(CO)C(O)C(O)C1NC(C)=O (stereo not drawn)	-27	4	-5%	3	3.4
COC(=O)c1[nH]c2ccc(Cl)cc2c1NC(=O)c1ccccc1[N+](=O)[O-]	-18	-6	3%	0	-1.2

In the list so far, these have a nitro group on carbon:
SMILES	YopH PTP inh	Arbovirus inh	Mtb H37Rv	Mtb bLac sens	RecA splice inh	others
CN1CCC(=NNc2ccc(S(=O)(=O)N3CCOCC3)cc2[N+](=O)[O-])CC1	8	-15	3%	-2	0.5
COC(=O)c1[nH]c2ccc(Cl)cc2c1NC(=O)c1ccccc1[N+](=O)[O-]	-18	-6	3%	0	-1.2

Remaining list, next part
SMILES	YopH PTP inh	Arbovirus inh	Mtb H37Rv	Mtb bLac sens	RecA splice inh	others
C[C@@H](C(=O)NCc1ccccc1)[C@H]1C[C@]1(C)[C@H](NC(=O)OCc1ccccc1)c1ccccc1	-16	-20	-7%	-4	14
COc1ccc(C2(c3ccc(OC)cc3)NC(=O)N(CC(=O)Nc3ccc(N4CCOCC4)cc3)C2=O)cc1	/	/	/	-11	0.1
COCCC(=O)N1CCC(Oc2ccc(C(=O)NCCc3cnn(C)c3)cc2)CC1	/	/	/	1	0.2
N#Cc1cc2c(nc1SCC(=O)Nc1sc3c(c1C#N)CCC3)CCCCCC2	-18	0	-9%	90	-0.8
Cn1c(SCC(=O)NCc2ccco2)nnc1-c1c[nH]c2ccccc12	/	-2	-14%	-11	-3.1
Cc1ccc(C)c(OCCCN2CCc3ccccc3C2)c1	/	/	/	-2	-0.1
COCCNC(=O)C(c1cccs1)N(CCc1ccccc1)C(=O)Cn1nnc2ccccc21 (stereo not drawn)	5	7	4%	-5	-2.4
CCOC(=O)c1c(NC(=O)c2nn(CC)cc2Br)sc(C)c1C	-14	-4	10%	4	-0.6
CN(C)/C=C/C(=O)c1cccc(Oc2ncccn2)c1	/	4	3%	-9	0.3
O=c1c2ccccc2nc(-c2ccccc2)n1-c1nccs1	-18	-2	1%	0	-0.1
O=C1/C(=C/c2ccc([N+](=O)[O-])cc2)C=C(c2ccccc2)N1c1ccc(O)cc1	-27	-41	?	85	4.7
O=C(CSc1nnc(-c2c[nH]c3ccccc23)n1-c1ccc(F)cc1)NCc1ccco1	-29	9	-7%	1	-0.1
COc1ccc(-c2csc(Nc3cccnc3)n2)cc1OC	-18	-9	-2%	0	-1.9
COc1ccc(CN2CCOCC2)cc1Br	-53	-1	-6%	-9	0.3
CCOc1ccccc1NC(=O)c1ccc(Cl)c(NC(=O)CC(c2ccccc2)c2ccccc2)c1	-27	-3	7%	26	-0.7
O=C(Cn1cc2c(n1)CCCCC2)Nc1c(F)cc(F)cc1Br	/	/	5%	-6	-2.2
O=C(CN1C(=O)CCC1=O)c1ccc(-c2ccccc2)cc1	-29	-1	5%	-2	-7.3
O=C(NNC(=O)C1CCCO1)c1ccc(Cl)cc1 (stereo not drawn)	-50	6	-4%	-5	-3.3
COc1ccc(-n2c(SCc3ccc(C#N)cc3)nnc2-c2ccccn2)cc1	-30	-7	-3%	-2	0.5
CCOC(=O)c1cc(CC)sc1NC(=O)COC(=O)C1CCC1	/	/	/	-10	7.6
CC(OC(=O)c1ccc(S(=O)(=O)N(C)c2ccccc2)cc1)C(=O)NCCC1=CCCCC1 (stereo not drawn)	-14	-3	-1%	-6	2.3
N#Cc1c(N2C(=O)C3C4C=CC(C4)C3C2=O)sc2c1CCC2 (stereo not drawn)	-37	1	2%	-8	0.8
C[C@]12CCC(O)CC1CCC1C2CC[C@]2(C)C(c3cc(C(F)(F)F)n[nH]3)CCC12 (stereo partly drawn)	/	/	9%	6	0.3
CN(Cc1ccccc1)C(=O)[C@@H]1CCCN1S(=O)(=O)c1ccc(Cl)cc1	/	/	/	-7	-1.2
Clc1cccc(Cl)c1CON/C=N/c1ncnc2sccc12	-40	-4	5%	0	1.9

Remaining list, next part.
SMILES	YopH PTP inh	Arbovirus inh	Mtb H37Rv	Mtb bLac sens	RecA splice inh	others
COc1cc(/C=C/C(=O)Nc2nc3ccc(S(=O)(=O)N(C)C)cc3s2)cc(OC)c1OC	-52	9	-22%	4	-11
CNS(=O)(=O)c1cccc(C(=O)OCC(=O)NC2CCCC2)c1	/	/	/	-4	-0.8
CCn1c(SCC(=O)N/N=C/C=C/c2ccco2)nnc1-c1ccccc1	-5	0	34%	2	3.8
CCC(CC)C(=O)NCCNC(=O)C(CC)CC	0	6	1%	-3	2.8
C/C(=N/OC(=O)c1c(-c2c(Cl)cccc2Cl)noc1C)c1cnccn1	/	-6	-3%	-9	/
CC(Oc1ccc(Cl)cc1Cl)c1nc(-c2ccc(NC(=O)c3ccncc3)cc2)no1 (stereo not drawn)	-26	-25	34µM*	75	2.0
CCOC(=O)c1ccc(NC(=O)N2CCCCC2)cc1	-17	-4	-4%	14	1.0
CSCC[C@H](NC(=O)C1CCN(C(=O)[C@@H](N)Cc2ccccc2)CC1)C(=O)O	/	/	/	4	-1.4
O=[N+]([O-])c1ccc(-c2ccc(/C=N/n3cnnc3)o2)c(Br)c1	/	/	/	-3	6.1
CCOc1ccc(CCNC(=O)CCc2nnc3ccc(N4CCCCC4)nn23)cc1OCC	/	/	/	-10	-3.0
CC(Sc1nnnn1C)C(=O)NC(=O)NC1CCCCC1 (stereo not drawn)	/	4	-3%	-3	0.6
O=C(C1CCN(S(=O)(=O)c2cnc[nH]2)CC1)N1CCN(Cc2ccc3c(c2)OCO3)CC1	-5	2	-5%	-9	/
Cc1cc(C(=O)N2CCN(S(C)(=O)=O)CC2)cs1	-38	-6	-8%	-13	-0.6	Arbovirus inh repeat=1
CC1=Nn2c(nnc2-c2ccc(F)cc2)SC1	-103	10	-1%	-23	-5.7
COc1cc(C(=O)NCC2CCCO2)cc(OC)c1OC (stereo not drawn)	-8	-2	2%	-4	3.7
Cc1ccc(COc2ccsc2C(=O)NNC(N)=S)cc1	/	0	3%	-3	-2.2
CCCSCCCNC(=O)c1ccccc1NC(=O)C1=CSCCO1	/	/	/	10	1.0
COc1ccc([N+](=O)[O-])cc1NC(=O)C(C)OC(=O)CN1C(=O)C2CC=CCC2C1=O (stereo not drawn)	/	/	/	-4	-7.5
CCOC(=O)C(NC(C)=O)C(=O)Nc1ccc(C(C)C)cc1 (stereo not drawn)	/	6	0%	0	1.5
O=C1NN(c2ccc(Cl)cc2)C(=O)/C1=C\c1ccc(-c2cccc(C(=O)O)c2)o1	/	-31	1%	/	/
CC1CCN(S(=O)(=O)c2ccc(N/N=C(/C#N)C(N)=O)cc2)CC1	-16	7	2%	9	-1.2
CC1Cc2ccccc2N1Cc1cc(=O)n2ccsc2n1 (stereo not drawn)	-15	-5	-5%	-5	/
Cc1c(CC(=O)N2CCN(C(=O)C3COc4ccccc4O3)CC2)c(=O)oc2c(O)c(O)ccc12 (stereo not drawn)	/	/	/	-6	-3.6

Structures shown so far containing a Cl atom:
SMILES	YopH PTP inh	Arbovirus inh	Mtb H37Rv	Mtb bLac sens	RecA splice inh	others
CN(c1ncc(C(F)(F)F)cc1Cl)n1cc(C(N)=O)c2ccccc2c1=O	-6	5	-12%	-11	4.9
CCOc1ncccc1C(=O)NCCc1ccc(Cl)cc1	/	/	/	-4	-2.6
O=C(NC(=S)N1CCOCC1)c1ccccc1Cl	/	/	/	-10	-1.6
N=c1c(C(=O)NCC2CCCO2)cc2c(=O)n3ccccc3nc2n1Cc1ccccc1Cl (stereo not drawn)	/	/	/	-6	-463
Nc1c(N=Nc2cccc(Cl)c2)c(=O)[nH]n1-c1ccccc1	-26	-3	-2%	-4	1.6
COC(=O)c1[nH]c2ccc(Cl)cc2c1NC(=O)c1ccccc1[N+](=O)[O-]	-18	-6	3%	0	-1.2
CCOc1ccccc1NC(=O)c1ccc(Cl)c(NC(=O)CC(c2ccccc2)c2ccccc2)c1	-27	-3	7%	26	-0.7
O=C(NNC(=O)C1CCCO1)c1ccc(Cl)cc1 (stereo not drawn)	-50	6	-4%	-5	-3.3
CN(Cc1ccccc1)C(=O)[C@@H]1CCCN1S(=O)(=O)c1ccc(Cl)cc1	/	/	/	-7	-1.2
Clc1cccc(Cl)c1CON/C=N/c1ncnc2sccc12	-40	-4	5%	0	1.9
C/C(=N/OC(=O)c1c(-c2c(Cl)cccc2Cl)noc1C)c1cnccn1	/	-6	-3%	-9	/
CC(Oc1ccc(Cl)cc1Cl)c1nc(-c2ccc(NC(=O)c3ccncc3)cc2)no1 (stereo not drawn)	-26	-25	34µM*	75	2.0
O=C1NN(c2ccc(Cl)cc2)C(=O)/C1=C\c1ccc(-c2cccc(C(=O)O)c2)o1	/	-31	1%	/	/

Source: PubChem BioAssay

Some of the compounds tested, so the mix of outcomes need not match the whole.
